Screening data: PubChem BioAssay, Fisher Drug Discovery Resource Center
NPYLR7 ag: activates Aedes aegypti NPYLR7 receptor; activation, % at 10 µM; AID 1259423; HEK293T NPYLR7/Galpha15, GCaMP6s calcium fluorescence; hit rate 0.15% among 270,000; in the data active = activation above about 40%;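 note: 0% = vehicle and 100% = reference agonist at the receptor; some compounds past the cut are filed as inactive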
NPYLR7 ag max-min: recorded beside NPYLR7 ag, whose call it bears; activation, %; measured here: Max-Min RFU normalised activation; some inactives read as strong as hits;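 span of the calcium signal over five minutes; 0% = vehicle and 100% = native peptide agonist; compound fluorescence can raise it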
Numbers without * were called inactive; & = joins results of further samples.

SMILES | NPYLR7 ag | NPYLR7 ag max-min
Cc1ccccc1NC(=O)c1c(N)c(C(=O)c2ccccc2)n2ccccc12 | -6 | -12
N#CC1=C(SCC(N)=O)NC(=O)CC1c1cccc(Oc2ccccc2)c1 (stereo unspecified) | -1 | -5
COc1ccccc1OCCN1CCC(C(=O)NC(c2ccc(Cl)cc2)c2ccsc2)CC1 (stereo unspecified) | 7 | 1
CC1CCN(CC(O)CN2C(=O)NC(C)(C)C2=O)CC1 (stereo unspecified) | 12 | 4
CN(C)S(=O)(=O)N(C)c1ccc(O)cc1 | 3 | 2
Cc1nc(NC(=O)c2cccc3c2OCCO3)sc1C | 17 | 7
O=c1[nH]c(=S)[nH]nc1-c1ccc(F)c(F)c1 | -2&9 | -3&9
COCCCN(CC(=O)N(Cc1cccn1C)C1CC1)S(=O)(=O)c1cccc(C(F)(F)F)c1 | -11 | -3
Cc1cccc(C(C)C)c1NC(=O)CN1CCN(C)CC1 | 1 | 1
Cc1cccc(NC(=O)CN(C)CCOc2cccc(Br)c2)c1C | 1 | -1
O=C(Nc1n[nH]c(-c2cccc(OC(F)F)c2)n1)c1ccco1 | 9 | 5
Cn1cnnc1CCNC(=O)c1cc(Cl)c2c(c1)OCO2 | -7 | -8
CC(C)c1cccc(-c2nc3c(N4CCOCC4)nccc3[nH]2)c1 | -5 | -9
Cc1ccc2ncnc(NCCc3ccccc3)c2c1 | -5 | -3
COc1ccc(N=c2scc(-c3cc4ccccc4o3)n2CC2CCCO2)cc1 (stereo unspecified) | 3 | 0
Cc1nc(C(C)N(C)Cc2nccn2C)c(C)s1 (stereo unspecified) | 2 | 0
Cc1cccc(C)c1NC(=O)c1nnn(Cc2nc(-c3ccccc3)oc2C)c1C | 8 | -4
CCOc1ccc(C(=O)Oc2coc(CSc3nccc(C)n3)cc2=O)cc1OCC | -11 | -4
CNc1ccccc1C(=O)N1CCCCC1CCN1CCOCC1 (stereo unspecified) | 18 | 9
COc1ccc(C(=O)N2CCC3(CC2)OCC(C(=O)O)N3C(=O)c2ccco2)cc1OC (stereo unspecified) | 6 | 13
Cc1ccc(-c2cc(NC(=O)c3cc(F)cc(C(F)(F)F)c3)n(-c3ccccc3)n2)cc1 | 5 | 3
COc1cc(Cl)cc2cc(C(=O)N3CCC4(CN(C)C(=O)O4)C3)oc12 (stereo unspecified) | -1 | 0
O=C(NCCN1CCOCC1)c1coc(CN(Cc2ccoc2)Cc2cccc(C(F)(F)F)c2)n1 | -6 | -1
CC(CCO)SCCS(=O)(=O)c1ccccc1 (stereo unspecified) | -1 | 0
Cc1cc(NC(=O)c2cccc(C#N)c2)n(C(C)(C)C)n1 | 6 | 2
Cc1cc(C(F)(F)F)n2nc(C(=O)N[C@@H]3C[C@@H](CO)N(C)C3)cc2n1 | 0 | 14
CC1(C)CNC(=O)CN(S(=O)(=O)c2cccs2)C1 | -1 | 9
CCC(C)N(Cc1csc(COc2c(OC)cccc2OC)n1)S(=O)(=O)c1ccc(C)cc1 (stereo unspecified) | -9 | 3
CCN(CC)c1ccc2cc(C(=O)Nc3ccc(F)cc3)c(=N)oc2c1 | -4 | -4
COc1cccc(CN2C(=O)C(N3CCSC3=O)C2c2ccsc2)c1 (stereo unspecified) | 5 | 5
O=c1[nH]c(N2CCOCC2)nc2ncn(-c3ccccc3)c(=S)c12 | 1 | -1
CCNc1ccnc(N(C)Cc2ncc(C)[nH]2)n1 | -11 | -10
Cc1cccc(-c2nc3ccc(Br)cn3c2NC(C)(C)C)c1 | -5 | -1
CCOC(=O)c1ccc(S(=O)(=O)NCCn2nc(-c3ccco3)ccc2=O)cc1 | -2 | -3
O=C1CSC(c2ccccc2)(C2SC(c3ccccc3)=NC2=O)N1 (stereo unspecified) | -1 | -4
CCN(CC)CCNC(=O)c1cc2cc([N+](=O)[O-])ccc2oc1=O | -18 | -22
COc1ccc(Br)cc1/C=N\NC(=O)CSc1nc2ccccc2[nH]1 | 9 | 10
O=C(NC1CCN(c2ccccc2C(=O)NCc2cccnc2)CC1)c1cccc(Cl)c1 | 15 | 15
CSc1ccc(COc2coc(CN3CCN(S(=O)(=O)c4c(Cl)cccc4Cl)CC3)cc2=O)cc1 | 29 | 22
COc1cc(OC)cc(C2=NC(=Cc3ccc(Br)cc3)C(=O)O2)c1 | 1 | -1
O=C1Cc2cc(-c3csc(C4CC4)n3)ccc2N1 | 7 | 8
COCCCNc1nc2ccccn2c(=O)c1C=C1SC(=S)N(CCOC)C1=O | -1 | 4
CC(NC(=O)CN1CSCC1=O)C12CC3CC(CC(C3)C1)C2 (stereo unspecified) | 1 | 1
CNC(=O)CSc1nc2[nH]ncc2c(=O)[nH]1 | -8 | -9
COc1ccc(-n2c(SCc3ccc(C(=O)Nc4ccc5c(c4)OCO5)cc3)nnc2-c2ccncc2)cc1 | 1 | 6
OC1CCN(Cc2ccccc2NCc2cccc(OC(F)(F)F)c2)CC1 | 1 | -1
Cc1c(C(=O)N2CCC(Cc3ccccc3)CC2)cc(-c2ccccc2)n1-c1ccc2c(c1)OCO2 | 7 | 15
C/C=C(\C)C(=O)N1CCN(c2nc3ccccc3nc2C(=O)OCC)CC1 | 7 | -3
COc1cccc(CSc2nnc(C(C)NC(=O)c3ccc(F)cc3)n2-c2cc(Cl)ccc2C)c1 (stereo unspecified) | -3 | 8
Fc1ccc(Nc2c(-c3ccsc3)nc3ncccn23)cc1 | -3 | -2
More structures follow:
SMILES | NPYLR7 ag | NPYLR7 ag max-min
Cc1cc(C)cc(NC(=O)c2ccccc2NS(=O)(=O)c2cccc(OC(F)(F)F)c2)c1 | -2 | 5
CC(=NNC(=S)NC(C)C)c1ccc(C(C)(C)C)cc1 | 6 | 4
CNC(=O)c1cccc(CNC(=O)C(Oc2ccc(F)cc2F)C(C)C)c1 (stereo unspecified) | 4 | 2
CC(=O)Nc1ccc(CC(=O)NC(C)c2cccs2)cc1 (stereo unspecified) | -3 | -6
Cc1ccc2nc(C)cc(C(=O)N3CCC4(CC3)CC4C(=O)NCC3(c4ccccc4)CCCC3)c2c1 (stereo unspecified) | 5 | 1
CN1CC2(CCN(C(=O)C3(c4ccc(Cl)cc4)CCCCC3)C2)OC1=O (stereo unspecified) | 4 | 2
O=S(=O)(Nc1ccc(S(=O)(=O)Nc2ncccn2)cc1)c1ccccc1 | 4 | 1
CC(NC(=O)c1ccoc1)C(=O)NCCS(=O)(=O)Cc1ccccc1 (stereo unspecified) | 4 | 2
Cc1nc(-c2ccccc2)sc1C(=O)NCc1ccco1 | 3 | 3
CN(C(=O)CN1CCN(C(=O)[C@H]2CCCN2C(=O)C2CCCCC2)CC1)c1ccccc1 | 4 | 5
Cc1ccc2nc(-c3cccc(NC(=O)Nc4cccc(Cl)c4)c3)oc2c1 | 17 | 31
CCCCC(=O)N(C)c1c(CC)nc2c(OCCOc3ccccc3)cccn12 | 3 | 6
Cc1cccn2c(CC(=O)N3CCNCC3C(=O)N3CCOCC3)cnc12 (stereo unspecified) | 19 | 7
O=C(Nc1ccc(-c2ccco2)cc1)C1CCCN(Cc2cccn2-c2cccnc2)C1 (stereo unspecified) | -1&7 | -5&1
COc1cccc(-c2nc3ccccn3c2NC(=O)C2CCCC2)c1 | -9 | -8
O=C(NCCCn1cccn1)C1CCC(=O)N(CCc2ccccn2)C1 (stereo unspecified) | -6 | -7
Cc1csc(NC(=O)CSC2=NS(=O)(=O)c3ccccc3N2)n1 | 12 | 8
CC(C)c1nc2cc(C(=O)N[C@@H]3C[C@H]3c3ccccc3)ccc2o1 | 6 | 0
CCCC(C)(CNC(=O)c1ccccn1)NC(=O)c1ccccn1 (stereo unspecified) | 2 | 1
Cc1cc(C)c2c(C)c(C(=O)N(C)c3ccccc3)sc2n1 | 3 | 3
O=S1(=O)CCC(Nc2ncnc3c2cnn3-c2ccc(F)cc2)C1 (stereo unspecified) | -1 | -2
O=c1c(-c2ccco2)[n+]([O-])c2ccccc2n1OCc1ccccn1 | -1 | -2
COc1ccc(C2CCCN2CC(=O)NCc2ccc(Cl)cc2)c(OC)c1 (stereo unspecified) | 4&1 | 3&0
Cc1n[nH]c(=O)c2cc3c(C)n[nH]c(=O)c3cc12 | 12 | 4
COCc1nnc(NC(=O)CN2CCCC(c3nnc4ccccn34)C2)s1 (stereo unspecified) | 1 | 9
CN(CC1CCCC1)c1ncccc1S(=O)(=O)N1CCCCC1 | 1 | 0
Cc1ccc(C(NC(=O)c2ccnn2C(F)F)c2cccnc2)cc1C (stereo unspecified) | -7 | -8
O=C1C(=Cc2cccnc2)Sc2ccccc21 | 12 | 7
CCOC(=O)N1CCC(Nc2ncnc3ccsc23)CC1 | 10 | 3
O=C(NCCN1C(=O)SC(=Cc2cccs2)C1=O)C1CCCCC1 | 14 | 6
Cc1ccc(NC2CCCNC2)cc1C (stereo unspecified) | -3 | -3
C[n+]1c(C=Cc2ccc(O)cc2)ccc2ccccc21 | 7 | 4
Cc1[nH]c2ccc(CNC(=O)c3ccccc3N(C)S(C)(=O)=O)cc2c1C | 5 | 5
O=C(C(c1ccccc1)c1ccccc1)N1CCC2(CC1)SCCN2C(=O)c1ccc(Br)cc1 | 27 | 28
Cc1cc2nc(-c3cc(NC(=O)c4ccc(I)cc4)ccc3O)oc2cc1C | 10 | 7
Cc1nc2c(cnn2C(C)C)cc1C(=O)N1CCCC(C(=O)Nc2ccccc2)C1 (stereo unspecified) | -1 | 1
CN1CCC2(CC1)CN(C(=O)CSc1nnnn1C)CCCN2C | 7 | 3
CCN1CCN(C(c2cccc(Br)c2)C2Sc3nc(-c4ccco4)nn3C2=O)CC1 (stereo unspecified) | -6 | -6
O=C(CCc1nc2c(cnn2-c2ccccc2)c(=O)[nH]1)N1CCC2CCCCC2C1 (stereo unspecified) | 5 | 4
COC(=O)c1ccc(NC(=O)Cn2ncn3nc(-c4ccc(C)c(C)c4)cc3c2=O)cc1 | -11 | -16

15 of these compounds, set out differently.
molecule	NPYLR7 ag	NPYLR7 ag max-min
CN(CC1CCCC1)c1ncccc1S(=O)(=O)N1CCCCC1	1	0
Cc1ccc(C(NC(=O)c2ccnn2C(F)F)c2cccnc2)cc1C (stereo unspecified)	-7	-8
O=C1C(=Cc2cccnc2)Sc2ccccc21	12	7
CCOC(=O)N1CCC(Nc2ncnc3ccsc23)CC1	10	3
O=C(NCCN1C(=O)SC(=Cc2cccs2)C1=O)C1CCCCC1	14	6
Cc1ccc(NC2CCCNC2)cc1C (stereo unspecified)	-3	-3
C[n+]1c(C=Cc2ccc(O)cc2)ccc2ccccc21	7	4
Cc1[nH]c2ccc(CNC(=O)c3ccccc3N(C)S(C)(=O)=O)cc2c1C	5	5
O=C(C(c1ccccc1)c1ccccc1)N1CCC2(CC1)SCCN2C(=O)c1ccc(Br)cc1	27	28
Cc1cc2nc(-c3cc(NC(=O)c4ccc(I)cc4)ccc3O)oc2cc1C	10	7
Cc1nc2c(cnn2C(C)C)cc1C(=O)N1CCCC(C(=O)Nc2ccccc2)C1 (stereo unspecified)	-1	1
CN1CCC2(CC1)CN(C(=O)CSc1nnnn1C)CCCN2C	7	3
CCN1CCN(C(c2cccc(Br)c2)C2Sc3nc(-c4ccco4)nn3C2=O)CC1 (stereo unspecified)	-6	-6
O=C(CCc1nc2c(cnn2-c2ccccc2)c(=O)[nH]1)N1CCC2CCCCC2C1 (stereo unspecified)	5	4
COC(=O)c1ccc(NC(=O)Cn2ncn3nc(-c4ccc(C)c(C)c4)cc3c2=O)cc1	-11	-16

Further results.
SMILES | NPYLR7 ag | NPYLR7 ag max-min
CC1CCc2c(sc(NC(=O)CN3CCOC(C)C3)c2C#N)C1 (stereo unspecified) | -4&-8 | -6&-10
COc1ccc(-c2noc(-c3cccc(C(N)=O)c3)n2)cn1 | 2 | 3
CCCCc1ncc(CN2CCCC3(CCNCC3)CC2)[nH]1 | 1 | 0
COc1ccc(-c2nc(NS(=O)(=O)/C=C/c3ccccc3)sc2C)cc1 | -1 | 7
COc1ccc(OCC2CN(C(=O)C(C)Oc3ccccc3Cl)CCO2)cc1 (stereo unspecified) | 16 | 9
Cc1nc(S(=O)(=O)N2CCN(CC(OCc3ccc(C(F)(F)F)cc3)c3ccc(Cl)cc3)CC2)cn1C (stereo unspecified) | -7 | 4
C#CCN(CC1CCCO1)C(=O)Nc1ccccc1-c1nnnn1C1CC1 (stereo unspecified) | 4 | 13
COc1ccc(-c2nc(CSc3cc(Cl)ccc3Cl)cs2)cc1OC | 23 | 34
CCOC(=O)C1CCCCN1C(=O)CCC(=O)c1ccc(SC)cc1 (stereo unspecified) | -2 | 0
CCCn1c(=O)c2c(nc3n2CC(C)=NN3Cc2ccccc2Cl)n(C)c1=O | 5 | 2

The list goes on (two carried over from the part before).
SMILES | NPYLR7 ag | NPYLR7 ag max-min
CCOC(=O)C1CCCCN1C(=O)CCC(=O)c1ccc(SC)cc1 (stereo unspecified) | -2 | 0
CCCn1c(=O)c2c(nc3n2CC(C)=NN3Cc2ccccc2Cl)n(C)c1=O | 5 | 2
CCOc1ccc(N2CCN(CC(=O)NC34CC5CC(CC(C5)C3)C4)C2=O)cc1 | 6 | 1
COCCNc1cc(-c2ccc(-c3ccon3)s2)c2cc[nH]c2n1 | 5 | -3
O=C(COc1ccc(Cl)cc1)Nc1ccc(N2CCC(Cc3ccccc3)CC2)c(C(=O)NCc2cccnc2)c1 | 16 | 13
CN(CCOc1ccccc1F)C1CCCN(c2ccccc2)C1=O (stereo unspecified) | 2 | 1
CN(C)c1nc(-c2ccccc2)c(CC(=O)O)s1 | 4 | 4
COc1ccc(OC)c(C2Nc3ccccc3-c3nc4ccccc4n32)c1 (stereo unspecified) | -13 | -22
CCOC(=O)c1c(N)sc(C(=O)Nc2ccc(OC)cc2)c1C | -3 | -9
CN(Cc1ccco1)C(=O)CSc1nc2ccccc2c(=O)n1Cc1ccc(F)cc1 | 1 | 0
NS(=O)(=O)c1ccc(NC(=O)C2CCN(c3ccc(-c4cccnc4)nn3)CC2)cc1 | -8 | -13
COc1cc2c(cc1OC)C(c1cccc(Cl)c1)N(C(=O)c1c(OC)cccc1OC)CC2 (stereo unspecified) | 9 | 4
Cn1nc(NC(=O)c2ccc(F)cc2F)c2c1NC(=O)CC2c1cccs1 (stereo unspecified) | -11 | -18
O=C(O)c1[nH]ncc1CN1CCCC(c2[nH]ncc2-c2ccccc2)C1 (stereo unspecified) | 1 | 0

A portion of the library; the hit share may differ from the screen's.
